# Compound activity: PubChem, several laboratories
# BJeLR lethal: kills HRASV12-expressing BJeLR cells | BJeLR (HRASV12) viability, CellTiter-Glo ATP luminescence, 48 h; reference of the scale not given here | inhibition, % (concentration not given with the values) | 0.17% of 300,000 active | AID 1554;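 active means replicate mean above 50%; inconclusive means above 50% but judged a plate artefact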;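 further: 50 nL library stock added to about 25 µL; numbers are from one replicate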
# Mtb hypoxia inh: inhibitors of hypoxia-regulated fluorescent reporter in Mycobacterium tuberculosis | fluorescence inhibition, % (concentration not given with the values) | AID 1159583 | 0.1% of 300,000 active | M. tuberculosis hypoxia-regulated fluorescent reporter, fluorescence;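 active means 35 to 45% if threefold the growth effect, above 45% if 1.5-fold the growth effect; inactive means the rest, general growth blockers included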;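 further: wells of about 50 µL received 100 nL stock; 0% = vehicle wells and 100% = reference inhibitor wells; whole bacteria with a GFP reporter of the hypoxia response; strong numbers were not always called active; many hits fall short of the cut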
# PrP 5UTR inh: inhibition of PrP 5' UTR reporter expression. inhibition, % (no concentration beside the values). AID 488862. cell-based PrP 5' UTR mRNA reporter, plate reader. 0.35% of 340,000 active;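 active means every replicate at 50% or more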;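 further: 0 = median of the neutral control wells; tested in H4 reporter cells; numbers are from one replicate; inactives centre near -14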
# Sa ugtP lethal: kills S. aureus RN4220 lacking UgtP. S. aureus RN4220 ugtP deletion, OD600 growth, 16 h; some inactives read as strong as hits. AID 1259309. 0.54% of 330,000 active. growth inhibition, % (concentration not given with the values);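 active means z-score under -3 and OD600 up to 0.15 on both plates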;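 further: plate controls were untreated wells for no effect and antibiotic for full effect; wells of about 80 µL received 100 nL stock; the first replicate is given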
# Autofluor counter: compound fluorescence in toxin protease inhibitor counterscreen | compound autofluorescence counterscreen, microsphere flow cytometry; stronger effect = higher value | 3.1% of 360,000 active | fluorescence intensity (concentration not given with the values) | AID 624483;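 active means at least 3 SD above the mean of all compounds, about 16000 in these data; inconclusive means too few beads counted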;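 further: 100 nL of 1 mM stock went into each well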
# RN4220 kill: kills Staphylococcus aureus RN4220; S. aureus RN4220 growth, OD600, 16 h; inhibition, % (concentration not given with the values); 0.33% of 330,000 active;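 active means z-score of -3 or lower and OD600 up to 0.18 on both plates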;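 further: plate controls were untreated cells for no effect and reference antibiotic for full effect; stock transfer was 100 nL into about 80 µL; one replicate is shown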
# Mtb hypoxia inh growth: further read-out of Mtb hypoxia inh, marked with its call; growth inhibition, %; measured here: M. tuberculosis growth (absorbance);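 0% = vehicle and 100% = reference antibiotic; read after six days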
# * = called active by the depositor; u = inconclusive; x = no result given.
(1) COc1ccc(-n2ccnc(SCC(=O)NCc3ccccc3Cl)c2=O)cc1
(2) COc1c(Cl)cc(Br)c(OC)c1C(=O)NC(=O)Nc1nc(C)cc(C)n1
(3) COCCCn1c(=O)c2sccc2n2c(CCCC(=O)NCc3ccc(F)cc3)nnc12
(4) O=C(COC(=O)c1ccc2ncsc2c1)Nc1ccc(Cl)cc1
(5) NC(=O)c1ccc(NC(=O)CSc2nnc(-c3cccnc3)n2Cc2ccco2)cc1
(6) CCOc1ccc(CCNC(=O)C2CCN(C(=O)N(C)C)CC2)cc1OCC
(7) O=C(C=Cc1ccccc1)c1ccccc1
(8) COc1ccc(Cl)cc1NC(=O)C(=O)NC1CCCCCC1
assay / compound	1	2	3	4	5	6	7	8
BJeLR lethal	7	3	5	x	-1	-5	x	2
Mtb hypoxia inh	2	-7	16	x	-11	-2	x	x
Mtb hypoxia inh growth	6	7	1	x	4	-4	x	x
PrP 5UTR inh	7	-54	-19	-18	2	-4	x	-15
Sa ugtP lethal	1	-6	6	1	-5	-4	3	-5
Autofluor counter	5856	5660	5427	3100	5771	5280	x	2604
RN4220 kill	0.0	-0.6	5.4	-1.6	-3.6	-1.8	22	-3.3

(9) Cc1ccc(C2(C)NC(=O)N(CC(=O)Nc3ccccc3C(=O)N3CCCCC3)C2=O)cc1 (stereo not drawn)
(10) Cc1ccc2c(c1)C(c1ccccc1)N(C(=O)c1ccc(Br)o1)CC(=O)N2 (stereo not drawn)
(11) CCC(C)N1CCNCC1 (stereo not drawn)
(12) COc1cc(NC(=O)C/C(C)=N/NC(=O)C2CCCCC2)c(OC)cc1Cl
(13) Cc1cc2nc(N=C(N)NC(=O)N3c4ccccc4Sc4ccccc43)nc(C)c2cc1C
(14) Cc1ccc(S(=O)(=O)NCC(c2ccc3c(c2)OCO3)N2CCN(c3ccccc3)CC2)cc1 (stereo not drawn)
(15) CC(C)Cc1nnc(NC(=O)C2CCN(C(=O)c3ccc(F)cc3)CC2)s1
(16) COC(=O)C1=C(c2ccccc2)C[C@@H]2CC[C@H]1N2C(=O)N1CCC(O)CC1
assay / compound	9	10	11	12	13	14	15	16
BJeLR lethal	-6	-7	-3	-3	x	5	0	-9
Mtb hypoxia inh	6	-7	1	x	0	-3	4	x
Mtb hypoxia inh growth	1	14	1	x	-4	2	3	x
PrP 5UTR inh	-6	-4	-22	-18	x	2	-20	-7
Sa ugtP lethal	3	-4	-1	x	2	2	4	x
Autofluor counter	4473	5187	4322	5743	x	x	x	3543
RN4220 kill	0.5	0.1	3.8	x	3.0	1.1	3.2	x

(17) Cc1ccn(CCNC(=O)C2CCC(=O)N(CCc3ccc(Cl)cc3)C2)n1 (stereo not drawn)
(18) O=C(O)c1ccccc1C=NNc1ccc([N+](=O)[O-])cn1
(19) CCOC(=O)C1CCN(C(=S)Nc2ccccc2)CC1
(20) CN1CCN(C(=O)c2sc(=S)n(-c3ccccc3)c2N)CC1
(21) O=C(/C=C/c1ccc(Br)cc1)NCc1cccs1
(22) Cc1cc(O)ccc1NS(=O)(=O)c1ccc2c3c(cccc13)C(=O)N2
(23) COc1ccc(-n2cc(CNCCCn3ccnc3)c(-c3ccccc3Cl)n2)cc1
(24) C=CCNC(=O)CN1CCC(NC(=O)c2ccco2)CC1
assay / compound	17	18	19	20	21	22	23	24
BJeLR lethal	-6	x	-4	2	-9	-1	-2	1
Mtb hypoxia inh	14	11	8	5	14	1	22	4
Mtb hypoxia inh growth	-6	4	5	-7	6	10	30	6
PrP 5UTR inh	-10	-7	-6	-12	14	-29	0	-19
Sa ugtP lethal	2	9	-4	7	8	1	12	4
Autofluor counter	5476	2839	2028	u	2856	6282	2094	1996
RN4220 kill	3.5	5.3	3.5	1.6	-2.6	2.5	2.4	3.4

(25) COc1ccc(CS(=O)/C(Cl)=C(/Cl)C(=O)Nc2ccc(OC)nc2)cc1 (stereo not drawn)
(26) Cc1oc(C(C)(C)C)cc1C(N)=O
(27) CSc1nc2ccc(NC(=O)c3ccc(=O)n(C)n3)cc2s1
(28) CC1(c2ccc(Cl)cc2)NC(=O)N(CC(=O)Nc2cccnc2Cl)C1=O (stereo not drawn)
(29) CCc1nnc(NC(=O)c2ccc(OCc3c(C)noc3C)c(OC)c2)s1
(30) O=C1c2ccccc2C(=O)N1CCc1nc(-c2cccnc2)no1
(31) O=C(CSc1nnc(SCc2cccc3ccccc23)s1)NN=C/C=C/c1ccccc1[N+](=O)[O-]
(32) Nc1ccc(Oc2c(Cl)cccc2Cl)nc1
assay / compound	25	26	27	28	29	30	31	32
BJeLR lethal	x	-3	9	-2	11	7	x	-14
Mtb hypoxia inh	x	4	1	8	11	-4	2	9
Mtb hypoxia inh growth	x	-4	1	7	9	-2	7	11
PrP 5UTR inh	-2	-20	-21	-9	-25	-2	x	-2
Sa ugtP lethal	16	1	1	-2	-5	-2	-4	3
Autofluor counter	x	5046	2170	u	4294	4529	x	5813
RN4220 kill	1.8	1.7	5.8	-3.0	8.3	0.1	7.2	4.4

(33) Cc1cc(Br)ccc1OCCNCc1ccccc1
(34) C[C@@H](NC(=O)Cn1ccc(NC(=O)OCc2ccccc2)nc1=O)c1cccc2ccccc12
(35) O=C(/C=C/c1ccco1)NCc1ccc(F)cc1
(36) O=C(O)C1Cc2[nH]cnc2C(c2ccc(F)cc2)N1 (stereo not drawn)
(37) CC(=O)N(c1ccccc1)c1nc2ccccc2s1
(38) CCC1CCCCN1CCCNC(=O)c1cn(CC)c2ccc(S(=O)(=O)N(C)C3CCCCC3)cc2c1=O (stereo not drawn)
(39) CCOC(=O)N1CCc2c(sc3c2c(=O)n(Cc2ccccc2)c(=O)n3CC(=O)NCC2CCCO2)C1 (stereo not drawn)
(40) COc1ccc(N=Cc2c(OC)ccc3ccccc23)cc1
assay / compound	33	34	35	36	37	38	39	40
BJeLR lethal	10	x	-3	-10	x	14	9	4
Mtb hypoxia inh	9	-3	x	10	18	-7	8	9
Mtb hypoxia inh growth	8	-2	x	1	9	-5	6	16
PrP 5UTR inh	-5	-9	-9	-40	-44	-20	-11	-29
Sa ugtP lethal	-9	-2	0	5	12	-5	7	6
Autofluor counter	2193	2783	4101	2600	3402	5881	u	3695
RN4220 kill	-2.1	13	5.1	3.3	5.1	-1.4	-0.1	0.9

(41) CC(=O)NNc1nc2ccccc2s1
(42) COc1ccc2[nH]c(CN3CCC(CO)(CCOc4ccccc4)CC3)c(C)c2c1
(43) CCc1cc(C)cc(OCCNC(=O)c2cncc(Br)c2)c1
(44) Cc1ccc(N2C(=O)NC(=O)/C(=C/c3ccc(-c4ccc(C(=O)O)c(Cl)c4)o3)C2=O)cc1
(45) NS(=O)(=O)c1cccc(NC(=O)c2cc(=O)c3ccccc3o2)c1
(46) COc1ccc(C(=O)ON=C2CCCc3nonc32)cc1
(47) Cc1csc(NC(=O)CCC(=O)c2cccs2)n1
(48) CCCCc1c(O)nc(SCC(=O)Nc2cccc3ccccc23)n(-c2ccccc2OC)c1=O
assay / compound	41	42	43	44	45	46	47	48
BJeLR lethal	-4	-2	0	-12	-1	x	1	-1
Mtb hypoxia inh	18	-2	5	4	3	16	-1	1
Mtb hypoxia inh growth	5	1	13	1	7	4	-1	-3
PrP 5UTR inh	-6	-28	-2	-1	-21	x	-12	-13
Sa ugtP lethal	-6	-15	-16	0	-3	6	9	8
Autofluor counter	9675	2420	3329	2592	3815	x	4511	5782
RN4220 kill	6.8	-1.7	-9.3	0.3	0.8	6.8	2.9	2.0

# From no. 42 up to 47, copied from above:
(42) COc1ccc2[nH]c(CN3CCC(CO)(CCOc4ccccc4)CC3)c(C)c2c1
(43) CCc1cc(C)cc(OCCNC(=O)c2cncc(Br)c2)c1
(44) Cc1ccc(N2C(=O)NC(=O)/C(=C/c3ccc(-c4ccc(C(=O)O)c(Cl)c4)o3)C2=O)cc1
(45) NS(=O)(=O)c1cccc(NC(=O)c2cc(=O)c3ccccc3o2)c1
(46) COc1ccc(C(=O)ON=C2CCCc3nonc32)cc1
(47) Cc1csc(NC(=O)CCC(=O)c2cccs2)n1
assay / compound	42	43	44	45	46	47
BJeLR lethal	-2	0	-12	-1	x	1
Mtb hypoxia inh	-2	5	4	3	16	-1
Mtb hypoxia inh growth	1	13	1	7	4	-1
PrP 5UTR inh	-28	-2	-1	-21	x	-12
Sa ugtP lethal	-15	-16	0	-3	6	9
Autofluor counter	2420	3329	2592	3815	x	4511
RN4220 kill	-1.7	-9.3	0.3	0.8	6.8	2.9

# (cont.)
(49) COc1ccc(C2(CNS(=O)(=O)c3ccccc3)CCOCC2)cc1
(50) CCOc1ccc(C(=O)Cc2ccc3oc(C(=O)O)cc3c2)c(O)c1
(51) Cc1ccc(S(=O)(=O)N2CCOCC2)cc1NC(=O)COc1ncnc2ccccc12
(52) O=C1C(=Cc2cccn2-c2ccccc2)C(=O)c2ccccc21
(53) O=C1C=C(c2cccc3c2oc2ccccc23)CC(c2ccc(F)cc2)C1 (stereo not drawn)
(54) Cc1ccc(S(=O)(=O)n2nc(C)c(S(=O)(=O)N3CCCCC3)c2C)cc1
(55) CCCCc1c(C)nc2ccc(C(=O)OCC)cc2c1Cl
(56) O=[N+]([O-])c1cc(S(=O)(=O)N2CCCC2)ccc1O
assay / compound	49	50	51	52	53	54	55	56
BJeLR lethal	-6	5	-3	-1	x	2	0	-12
Mtb hypoxia inh	7	8	5	3	17	6	4	9
Mtb hypoxia inh growth	7	0	-1	5	6	6	5	19
PrP 5UTR inh	28	-5	-18	-31	x	-13	-4	-18
Sa ugtP lethal	0	31	4	2	4	6	8	6
Autofluor counter	4139	3363	2000	8473	x	5313	2479	2588
RN4220 kill	6.0	2.9	3.5	4.9	-5.0	3.1	0.5	9.9

# Limited to Autofluor counter and Mtb hypoxia inh, for some of the entries so far:
cpd | Compound | Autofluor counter | Mtb hypoxia inh
48 | CCCCc1c(O)nc(SCC(=O)Nc2cccc3ccccc23)n(-c2ccccc2OC)c1=O | 5782 | 1
49 | COc1ccc(C2(CNS(=O)(=O)c3ccccc3)CCOCC2)cc1 | 4139 | 7
50 | CCOc1ccc(C(=O)Cc2ccc3oc(C(=O)O)cc3c2)c(O)c1 | 3363 | 8

# (listing goes on)
(57) COc1ccc2c(Cl)c(-c3nnc4n3CCCCC4)sc2c1
(58) C=CCOc1ccc(/C=N/NC(=O)c2cc3c(OC)cc(OC)cc3[nH]2)cc1
(59) Cc1cc(C(=O)OCC(=O)Nc2cc(C)on2)c2ccccc2n1
(60) OCCCNc1c2c(nc3cc(-c4ccc(Cl)cc4)nn13)CCC2
(61) CC1CC(C)CN(c2ncnc3c2cnn3Cc2ccc(Cl)cc2)C1 (stereo not drawn)
(62) Cc1cccc(NS(=O)(=O)c2ccc(C)c(C(=O)N(C)C)c2)c1
(63) Cc1noc(NS(=O)(=O)c2ccc(NC(=O)CSc3ncccn3)cc2)c1C
(64) O=C(NCCN1CCN(C(=O)c2cc3ccccc3oc2=O)CC1)c1cc2ccccc2oc1=O
assay / compound	57	58	59	60	61	62	63	64
BJeLR lethal	4	-26	4	-2	5	x	-3	10
Mtb hypoxia inh	11	x	17	1	-1	11	x	12
Mtb hypoxia inh growth	13	x	-4	-1	6	5	x	6
PrP 5UTR inh	-17	-33	-13	-6	-12	-12	-25	4
Sa ugtP lethal	-11	x	5	6	-7	4	-11	6
Autofluor counter	2980	4091	u	4970	2894	5401	4767	2383
RN4220 kill	-12	x	4.9	2.0	-16	9.5	6.8	2.2

(65) CC(C=NN1C(=O)CSC1=S)=Cc1ccccc1
(66) CCCCc1ccc(NC(=S)NN2CCOCC2)cc1
(67) O=C(O)c1ccc(C=NNc2ccc(S(=O)(=O)N3CCCC3)cc2[N+](=O)[O-])cc1
(68) O=c1[nH]c(O)c(N=Nc2ccc(S(=O)(=O)N3CCOCC3)cc2)c(=O)[nH]1
(69) CCOC(=O)c1cc(C#N)c(SC(C)C(=O)NC2CCCCC2)nc1C (stereo not drawn)
(70) CC1CC(C)CN(C(=O)CSc2nnc(-c3ccc(F)cc3)o2)C1 (stereo not drawn)
assay / compound	65	66	67	68	69	70
BJeLR lethal	x	2	x	-6	x	-4
Mtb hypoxia inh	14	2	17	15	9	x
Mtb hypoxia inh growth	15	-3	4	0	4	x
PrP 5UTR inh	x	-14	x	-14	-14	-15
Sa ugtP lethal	-2	39	12	0	7	-9
Autofluor counter	x	1950	x	2209	3711	6039
RN4220 kill	2.0	1.7	9.0	2.7	4.6	6.4
